# Assay outcomes (PubChem BioAssay)
# UUG fidelity: modulators of yeast start codon fidelity, primary screen, whole organism, S. cerevisiae, single point, plate reader | activity score, % at 18.7 µM | AID 602363, 2012 | hit rate 0.13% among 350,000 | S. cerevisiae UUG-firefly luciferase reporter, luminescence/redox ratio;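 active = replicate mean at a twofold rise or more, about +100% in these data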;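 also: firefly luciferase made from a UUG start codon reports start codon fidelity; reporter light over untreated wells divided by growth signal over untreated wells; some hits fall short of that in this replicate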
# PABP polyA inh: PABP poly(A) RNA binding inhibitors, primary screen, biochemical, fluorescence polarization, uHTS | inhibition, % at 35 µM | hit rate 1% among 290,000 | Polyadenylate-binding protein 1 (Homo sapiens), P11940;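 active = 50% or more with normal probe brightness, or confirmed in later tests; inconclusive = above 50% with abnormal brightness, or retests that disagree; inactive = below 50% or failed in later tests; about a fifth of its hits are not listed in these tables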;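 also: calls also rest on retests at 20 µM and on dose response follow-up; controls were probe without protein and protein plus probe with vehicle; some compounds called inactive have numbers as strong as hits; many hits fall short of the cut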
# Target sequence (P11940 whole entry, looked up): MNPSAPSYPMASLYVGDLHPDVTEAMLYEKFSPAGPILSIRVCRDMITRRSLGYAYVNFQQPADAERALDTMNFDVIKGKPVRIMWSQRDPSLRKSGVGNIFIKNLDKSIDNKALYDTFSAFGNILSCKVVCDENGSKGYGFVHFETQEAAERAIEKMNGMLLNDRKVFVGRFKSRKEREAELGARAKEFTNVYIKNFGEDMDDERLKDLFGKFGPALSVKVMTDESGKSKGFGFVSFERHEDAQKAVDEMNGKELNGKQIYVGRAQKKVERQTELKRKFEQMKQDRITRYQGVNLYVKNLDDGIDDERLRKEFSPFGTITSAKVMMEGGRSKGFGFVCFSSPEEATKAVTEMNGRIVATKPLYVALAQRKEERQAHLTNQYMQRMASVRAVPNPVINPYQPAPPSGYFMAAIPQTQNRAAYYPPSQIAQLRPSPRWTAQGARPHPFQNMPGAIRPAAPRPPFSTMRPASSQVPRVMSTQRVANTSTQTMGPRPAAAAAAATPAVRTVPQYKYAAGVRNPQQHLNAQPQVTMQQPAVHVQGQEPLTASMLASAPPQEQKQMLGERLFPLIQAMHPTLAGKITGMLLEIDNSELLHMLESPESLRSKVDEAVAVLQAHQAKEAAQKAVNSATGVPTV
# Rce1 inhib: yeast Rce1p protease inhibitors, primary screen, biochemical, fluorescence, cell-free homogeneous; AID 2563, 2010; calls only; hit rate 0.27% among 290,000; CAAX prenyl protease 2 (Saccharomyces cerevisiae (strain ATCC 204508 / S288c)), Q03530; yeast membranes, quenched prenylated peptide cleavage fluorescence;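 active = fall in fluorescence gain of 50% or more versus controls, with final raw signal at or below 3038400; inconclusive = same 50% fall but final raw signal above 3038400; inactive = fall in fluorescence gain under 50%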;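 also: plate controls were neutral control wells for no effect and wells lacking membranes for full effect; tested at 10 µM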
# Target sequence (Q03530 whole entry, looked up): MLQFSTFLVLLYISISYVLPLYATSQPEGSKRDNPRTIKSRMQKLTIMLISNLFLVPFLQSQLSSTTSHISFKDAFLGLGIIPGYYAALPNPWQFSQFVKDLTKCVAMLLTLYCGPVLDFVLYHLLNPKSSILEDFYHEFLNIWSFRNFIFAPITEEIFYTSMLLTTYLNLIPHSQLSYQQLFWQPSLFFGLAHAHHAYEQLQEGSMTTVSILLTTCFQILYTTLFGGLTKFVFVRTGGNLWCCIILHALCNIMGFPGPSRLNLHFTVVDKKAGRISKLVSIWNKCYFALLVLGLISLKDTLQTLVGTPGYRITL
# MT1-MMP act inh: blockers of MT1-MMP proenzyme processing, primary screen, HT1080 RFP-PRO-GFP cells, GFP/RFP fluorescence | GFP/RFP ratio fluorescence, overnight; percent of plate control window, DMSO zero | GFP/RFP ratio change, % at 20 µM | AID 651647, 2012 | hit rate 0.061% among 360,000;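 active = GFP/RFP ratio change of at least 30% with cell ATP level not reduced by more than half and red fluorescence within 50% of control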; also: strong numbers were not always called active
#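 Assay system: RFP-PRO-GFP reporter HT1080 cells; read-out basis: GFP/RFP fluorescence ratio; benchmarks: DMSO wells and RFP-L50D-GFP cells; doses: 20 µM single dose, 1% DMSO; schedule: overnight cell settling, then overnight compound exposure, 37 °C, 5% CO2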
# HIV Env fusion: inhibitors of HIV-1 Env-driven cell-cell fusion, primary screen, HeLa-JRFL effector, CEM21 target cells, luciferase. inhibition, % at 12.3 µM. hit rate 1.1% among 360,000;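 active = mean replicate inhibition score of at least 50 and every replicate individually at or above 50; inconclusive = only one of the two criteria met; inactive = mean below 50 and not all replicates reaching 50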;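 also: 0% = plate neutral controls and 100% = maraviroc near 300 nM; one replicate is shown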
# CSC inhib: cancer stem cell viability inhibitors, primary screen, luminescence; cancer stem cell-like cells viability; inhibition, % at 7.5 µM; hit rate 1.1% among 300,000; AID 2717, 2010;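 active = mean at 75% or more and at least half the replicates too; inconclusive = mean and replicates disagree; tested in HMLE shEcad cells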;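 also: 0% = median of negative and 100% = median of positive control wells; the first replicate is given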
# eIF4H inh: human eIF4H binding inhibitors, primary screen, translation initiation inhibitor project, biochemical, uHTS, fluorescence polarization | inhibition, % at 35 µM | Eukaryotic translation initiation factor 4H (Homo sapiens), Q15056 | AID 2012, 2009 | hit rate 0.94% among 290,000 | eIF4H fluorescence polarization binding assay;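 active = 50% or more with normal probe brightness, or confirmed in later tests; inconclusive = above 50% with abnormal brightness, or retests that disagree; inactive = below 50% or failed in later tests; about a fifth of its hits are not listed in these tables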;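 also: calls also rest on retests at 20 µM and on dose response follow-up; 0% = protein and probe with vehicle and 100% = probe without protein; strong numbers were not always called active; many hits fall short of the cut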
# eIF4H inh retest: further read-out of eIF4H inh, marked with its call; inhibition, %; compound at 20 µM; confirmation average;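 mean of two retest wells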
# PABP polyA inh retest: also measured in PABP polyA inh; calls as there; inhibition, %; compound at 20 µM; confirmation repeats;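 mean of two retest wells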
# MT1-MMP act inh RFP: second read-out of MT1-MMP act inh, no call of its own (marks repeat the call); RFP signal change, %; measured here: RFP expression control read;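 0 = vehicle wells; hits needed this value within 50% of zero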
# Numbers without * were called inactive; i = inactive; ? = inconclusive; . = not tested or not shown.
SMILES,UUG fidelity,PABP polyA inh,Rce1 inhib,MT1-MMP act inh,MT1-MMP act inh RFP,HIV Env fusion,CSC inhib,eIF4H inh,others
CCCCOc1ccc(OC(=O)c2cccnc2)cc1,-19,-10,i,1,0,?,35,-5,
O=C(NCc1ccc(F)cc1)C(Cc1ccccc1)NS(=O)(=O)c1cccs1 (configuration not stated),-21,0,i,-3,2,10,8,0,
CCOC(=O)C1=C(O)/C(=C/c2ccc(-c3ccccc3C(=O)O)o2)SC1=Nc1ccc(OC)cc1,1,82*,.,-27,6,.,.,78*,
COc1cccc2c(=O)n(CC(=O)Nc3cccc(F)c3)ccc12,-6,-3,i,-2,1,-12,-13,-9,
CCN(Cc1nc2ccccc2n1C)c1ccccc1,-11,10,i,-2,-4,8,-13,-4,
O=C(OCc1ccccc1)N1CCC2CC1c1cc(N3CCN(C(=S)NCCc4ccccc4)CC3)ccc12 (configuration not stated),-12,.,.,4,-14,45,.,.,
CCN1CCc2nc(SCC(=O)Nc3ccc(OC)cc3)c(C#N)cc2C1,-3,60,i,-10,0,-11,-1,45,eIF4H inh retest=16;PABP polyA inh retest=25
CCC1CN(C(=O)N2CCC(C(=O)NCc3ccco3)CC2)c2cc(C)ccc2O1 (configuration not stated),-6,-3,i,3,-1,12,-1,-17,
CCC(C)C(NC=C1C(=O)OC(C)(C)OC1=O)C(=O)O (configuration not stated),-5,6,i,2,5,4,-5,-7,
Cc1ccc(C)c(N2N=C(C(=O)OCc3nnc(-c4ccccc4)o3)CCC2=O)c1,.,.,i,-2,3,3,5,.,
Cc1cc(C)c(OCCCCN(C)C)c(Br)c1,.,4,i,4,3,-52,50,-9,
CCCn1cc(S(=O)(=O)c2ccc(OC)cc2)c(=O)c2cc(OC)ccc21,-18,-6,i,-1,1,9,17,12,
O=C(NC(Cc1ccccc1)c1nc2ccccc2[nH]1)c1ccc(Cl)c([N+](=O)[O-])c1 (configuration not stated),.,2,i,-3,-5,-17,3,-4,
C=CCNC(=O)c1cc2cccc(OC)c2oc1=O,.,-7,i,1,5,-7,2,-4,
CC1=NN(c2ccc(C(F)(F)F)cn2)C(=O)C1,-17,1,i,-13,-2,-4,59,13,
COc1ccc(-n2nnc3c(SCC(=O)N4CCCc5ccccc54)ncnc32)cc1,-19,.,.,1,-2,0,-2,.,
COc1ccc(-c2cccc(-c3nc4ccc(Cl)cn4c3NC3CCCCC3)c2)cc1,-1,.,.,-9,-14,-7,29,.,
Cc1cnc(NC(=O)C(C)N2CCN(C)CC2)s1 (configuration not stated),.,-4,i,-1,3,-11,-9,3,
COc1ccc(NC(=O)COc2nsnc2N2CCCCC2)cc1,2,1,i,-4,-12,13,-16,7,
COc1cc(C(=O)OCC(=O)NC2CCS(=O)(=O)C2)ccc1OCc1c(C)noc1C (configuration not stated),.,3,i,-1,0,.,-14,8,
CC(C)CNC(=O)CC(c1ccccc1)c1ccccc1,-16,2,i,0,-3,-13,-1,4,
CC1CC(C)CN(C(=O)c2cc(S(=O)(=O)N3CCCCC3)ccc2Cl)C1 (configuration not stated),-6,.,i,-5,-7,30,.,.,
COc1ccccc1N1CCN(C(=O)CNC(=O)Cn2cnc3sc(C)c(C)c3c2=O)CC1,-3,-4,i,-2,-2,4,-5,-25,
COc1cccc(Oc2c(C)oc3c(CN4CCCC4)c(O)ccc3c2=O)c1,.,-3,i,-4,-1,3,-9,-14,
O=C(NCc1ccco1)c1cc(-c2ccccc2)nn1CC1CC(c2cccnc2)=NO1 (configuration not stated),-17,.,i,-6,0,-14,-6,.,
NC(=O)c1ccc(N2CCOCC2)nc1,.,6,i,-3,5,5,0,-6,
Cc1cc(C)n(CCC(=O)Nc2cccc(F)c2)n1,-12,-29,i,7,9,20,-15,-8,
O=C(Nc1cccnc1Cl)c1cccc(F)c1,.,-3,i,.,.,-11,.,19,
Cc1ccc(C(=O)NCC(=O)OCC(=O)NC2CCCCCCC2)cc1,1,1,i,-2,3,13,-21,-6,
CC(=O)N1CC=CC1(C)C(=O)O (configuration not stated),-22,7,i,-3,-1,-9,-11,6,
COc1cccc(C2(O)CCN(C(=O)C3CCC3)CC2)c1,-32,-2,i,-3,3,-1,-5,2,
COc1ccccc1NC(=O)c1ccc(NC(=O)CSc2n[nH]c(N)n2)cc1,-21,-8,i,15,8,-3,8,1,
COc1ccc(C2C(C#N)=C(N)Oc3cc(O)ccc32)cc1OC (configuration not stated),-13,18,.,-11,-3,.,-12,10,
Cc1cccc(OCC(=O)NCCN2CCOCC2)c1,-9,1,i,9,7,16,.,-6,
C[C@@H]1C[C@H]2[C@@H]3C[C@H](F)C4=CC(=O)C=C[C@]4(C)[C@@]3(F)[C@@H](O)C[C@]2(C)[C@@]1(O)C(=O)CO,-8,-8,i,-5,0,i,1,-2,
CCCCc1n[nH]c(=S)n1Cc1ccc(C)cc1,.,2,i,-1,-2,8,-7,-6,
CCC(c1nnc(SCC(=O)Nc2cccc(S(N)(=O)=O)c2)n1-c1ccc(OC)cc1)N(C)C (configuration not stated),-10,-4,i,-1,0,-4,-1,1,
Cc1ccc(CN(Cc2ccco2)C(=O)c2ccco2)cc1,-26,0,i,-5,-3,6,3,3,
C=CCOc1ccc(NC(=O)C(=O)NCCCn2ccnc2)cc1,-14,-6,i,0,-1,-64,-14,0,
CC(Sc1ncc(C#N)c(N)n1)C(=O)Nc1ccccc1 (configuration not stated),-15,3,i,2,1,-42,-8,-10,
Nc1nc(N)c2cc(S(=O)(=O)c3cccc(C(F)(F)F)c3)ccc2n1,1,.,.,8,-18,5,.,.,
Cc1cc(=O)[nH]c(SCC(=O)c2ccc(C)c(C)c2)n1,-15,-4,i,-2,-4,.,1,-12,
Cc1ccc(OCC(=O)N2N=C(c3ccncc3)CC2(O)C(F)(F)F)cc1C (configuration not stated),-10,8,i,5,-2,-41,16,-15,
C=CCn1c(SCC(=O)N(C)C2CCS(=O)(=O)C2)nnc1-c1ccncc1 (configuration not stated),.,-12,i,1,1,.,-4,3,
O=C1CN(C(=O)COC(=O)c2cccc(S(=O)(=O)NCc3ccccc3)c2)c2ccccc2N1,1,9,i,4,1,-22,-4,-4,
O=C(CSc1ccc(-c2ccco2)nn1)NCc1ccccc1,-2,6.9*,i,0,7,.,-7,97*,eIF4H inh retest=95*;PABP polyA inh retest=87*
CCCc1cc(C(=O)Nc2ccccc2SC)no1,-6,-16,i,-1,-1,-14,-23,-2,
CCOC(=O)c1nc2sc(C)c(C)c2c(=O)[nH]1,.,3,i,9,3,.,-4,-3,

# 5 structures already listed, ordered by SMILES length, rising:
SMILES,UUG fidelity,PABP polyA inh,Rce1 inhib,MT1-MMP act inh,MT1-MMP act inh RFP,HIV Env fusion,CSC inhib,eIF4H inh,others
Cc1cccc(OCC(=O)NCCN2CCOCC2)c1,-9,1,i,9,7,16,.,-6,
CC1=NN(c2ccc(C(F)(F)F)cn2)C(=O)C1,-17,1,i,-13,-2,-4,59,13,
Cc1ccc(CN(Cc2ccco2)C(=O)c2ccco2)cc1,-26,0,i,-5,-3,6,3,3,
COc1ccc(C2C(C#N)=C(N)Oc3cc(O)ccc32)cc1OC (configuration not stated),-13,18,.,-11,-3,.,-12,10,
Nc1nc(N)c2cc(S(=O)(=O)c3cccc(C(F)(F)F)c3)ccc2n1,1,.,.,8,-18,5,.,.,

# More structures follow:
SMILES,UUG fidelity,PABP polyA inh,Rce1 inhib,MT1-MMP act inh,MT1-MMP act inh RFP,HIV Env fusion,CSC inhib,eIF4H inh,others
CC(SC1=Nc2ccccc2C2CC=NN12)C(=O)NC1(C#N)CCCCC1 (configuration not stated),-7,.,.,6,-2,9,9,.,
O=C(Cn1nc(C(F)F)cc1C(F)F)NNC(=S)Nc1ccc(Cl)cc1,-24,-4,i,1,2,.,2,16,
CCOC(=O)C1(Cc2ccc(OC)cc2)CCN(C(=O)c2cc(C)on2)CC1,-11,-1,i,3,3,-5,0,-2,
CC(C)CC1(C)NC(=O)N(Cc2cc([N+](=O)[O-])cc3c2OCOC3)C1=O (configuration not stated),-20,5,i,-3,4,10,7,-10,
Cc1ccc(NC(=O)C2CC2)cc1S(=O)(=O)N1CCOCC1,4,.,.,3,1,-5,-16,.,
CCOc1ccc(C2=[N+]([O-])C(C)(C)N(O)C2(C)C)cc1,-15,-5,i,2,8,-6,-13,-2,
O=C1CCC[C@@H]2C[C@@]3(C[C@@H]4CCN1[C@H]24)Nc1cc(Cl)ccc1NC3=NC1CCCCC1,2,.,.,2,1,-9,.,.,
O=C(Nc1ccc(O)c(-c2nc3ccccc3o2)c1)C1(c2ccccc2)CCCC1,.,-10,i,-6,-7,.,20,-7,
CC1CCCCN1S(=O)(=O)c1ccc(C(=O)Nc2nnc(-c3ccccn3)o2)cc1 (configuration not stated),.,9,i,-3,-1,-37,48,-2,
CCNC(=O)C1CCCN(c2nc(C)cc(C)n2)C1 (configuration not stated),.,0,i,3,7,20,1,1,
CC(=O)c1ccc(S(=O)(=O)Nc2ccc(-c3cn4c(n3)SCC4)cc2)cc1,.,15,i,1,3,-9,-4,-4,
CC(=O)c1c(-c2ccccc2)[nH]c2ccccc12,1,-4,i,0,-18,-11,32,-5,
COc1ccc(N2CCN(Cc3cc4c(cc3Br)OCCO4)CC2)cc1,5,-10,i,3,4,-1,9,-5,
COc1ccc(NC(=O)CN(C)S(=O)(=O)c2ccc(Cl)cc2)c([N+](=O)[O-])c1,-3,-7,i,2,2,.,-8,12,
O=C(NCCc1ccc(Cl)cc1)C1CCCO1 (configuration not stated),-8,-3,i,2,1,-8,-3,0,
CN(CC(=O)Nc1ccc(N2CCOCC2)cc1)CC(=O)Nc1ccc(C(F)(F)F)cc1,-10,40,i,5,4,16,28,3,
O=C(COC(=O)c1ccccc1)NC12CC3CC(CC(C3)C1)C2,-11,.,.,-1,1,-1,-14,.,
Cn1c(=O)c([N+](=O)[O-])c(NCCc2ccccc2)c2ccccc21,-9,13,i,-4,-9,-3,0,-10,
O=C(CN1C(=O)NC2(CCCCC2)C1=O)N1CCN(C(=O)c2cccs2)CC1,-7,.,.,1,3,25,9,.,
CCCCCCN1C[C@H](n2cc(C3CC3)nn2)[C@@H](O)C[C@@H]1c1ccc(C)cc1,-5,.,.,-3,-3,11,.,.,
CCn1ncc(C2=NOC(C(=O)NCc3ccc(OC)cc3)C2)c1C (configuration not stated),6,6,i,2,-1,-54,.,-2,
COc1ccc(NC(=O)CSc2nnc(-c3ccccc3)n2N)cc1,-16,12,i,1,1,.,.,7,
O=C(Nc1ccc(N2CCOCC2)cc1)Nc1ccc2nsnc2c1,.,0,i,-1,0,25,.,-9,
COc1ccc(-n2c(C)nn(CC3CC3)c2=O)cc1,.,-4,i,-4,-1,2,.,3,
